KCNQ2 block: KCNQ2 potassium channel inhibitors, primary screen, cell-based, CHO-K1, FluxOR thallium flux, B-score (AID 2156). O88943. 20 min; stronger effect = lower value; only compounds with negative scores are shown here; some inactives read as strong as hits. B-score at 10 µM. 310,000 tested, 1.1% active;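 active means fluorescence ratio B-score at most minus 3 library SDs, with starting brightness B-score within 2 library SDs, cut at about -5.5 in these data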
Target sequence (O88943 whole entry, looked up): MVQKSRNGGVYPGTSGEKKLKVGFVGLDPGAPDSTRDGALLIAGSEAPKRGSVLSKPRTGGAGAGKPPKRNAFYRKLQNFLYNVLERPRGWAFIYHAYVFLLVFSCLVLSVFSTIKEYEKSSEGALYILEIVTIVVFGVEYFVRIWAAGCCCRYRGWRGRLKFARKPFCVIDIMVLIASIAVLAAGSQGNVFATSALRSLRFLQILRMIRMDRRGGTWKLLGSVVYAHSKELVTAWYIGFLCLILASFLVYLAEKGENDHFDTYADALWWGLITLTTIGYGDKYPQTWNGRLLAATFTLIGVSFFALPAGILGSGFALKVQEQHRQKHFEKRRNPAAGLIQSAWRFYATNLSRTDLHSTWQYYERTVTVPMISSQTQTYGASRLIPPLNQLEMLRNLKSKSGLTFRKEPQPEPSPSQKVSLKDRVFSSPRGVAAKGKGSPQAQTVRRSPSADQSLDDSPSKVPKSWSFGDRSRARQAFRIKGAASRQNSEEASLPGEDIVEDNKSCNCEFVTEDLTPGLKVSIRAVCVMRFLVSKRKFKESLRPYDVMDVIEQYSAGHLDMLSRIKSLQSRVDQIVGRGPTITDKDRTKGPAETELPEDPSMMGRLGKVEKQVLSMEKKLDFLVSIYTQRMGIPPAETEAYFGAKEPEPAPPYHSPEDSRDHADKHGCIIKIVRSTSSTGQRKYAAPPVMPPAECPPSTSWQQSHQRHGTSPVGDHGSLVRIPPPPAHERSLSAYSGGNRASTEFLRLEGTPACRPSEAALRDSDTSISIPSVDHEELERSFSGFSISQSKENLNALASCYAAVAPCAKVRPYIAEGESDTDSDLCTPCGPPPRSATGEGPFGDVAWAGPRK
KCNQ2 block baseline: further read-out of KCNQ2 block, marked with its call; B-score; measured here: initial fluorescence intensity artifact check;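 brightness before thallium and not channel activity; 0 = typical well and far values either way flag optical interference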
Starred values were filed as active, the others as inactive; i = inactive. The list is partial. The share of hits here may be higher or lower than overall.

SMILES	KCNQ2 block	KCNQ2 block baseline
CC(=O)c1ccc(S(=O)(=O)NCCC(=O)OCC(=O)NCCc2ccccc2)cc1	i	0.84
Cc1ccc(-c2csc(NC(=O)c3ccno3)n2)cc1	i	2.2
Cn1cc(SCC(=O)NCc2ccc3c(c2)OCO3)c2ccccc21	i	-1.3
Cc1sc(NC(=O)C2CCCCC2C(=O)O)c(C(N)=O)c1-c1ccc(C(C)C)cc1 (stereo unspecified)	i	0.13
O=C1/C(=C\c2ccco2)NC(=S)N1c1ccccc1	i	-0.23
COc1ccccc1NC(=O)CSC1=NC(=O)C(Cc2ccccc2)C(=O)N1 (stereo unspecified)	i	-0.85
Fc1ccc(COc2ccc(/C=N/n3cnnc3)cc2)cc1	i	0.89
O=C(Nc1nnc(-c2ccco2)s1)C1CC1	i	-0.37
C[n+]1c(-c2ccccc2)sc([S-])c1-c1ccccc1	i	-0.53
CCCC[C@H]1C2=C3[C@@H](CC(C(=O)OC)=C[C@@H](C(=O)OC)[C@H]3C(C)(C)C2=O)n2c(=O)n(-c3ccccc3)c(=O)n21	i	1.6
COc1ccccc1-c1cc(C(=O)N2CCN(c3ccccc3OC)CC2)no1	i	-1.7
Cc1cn2c(-c3ccc(Cl)cc3)nnc2s1	i	-0.26
O=[N+]([O-])c1cccc(/C=N/Nc2cc(Cl)nc(-c3ccccc3)n2)c1	i	-0.8
COc1ccc(C2C(C(=O)N3CCOCC3)=C(C)NC3=C2C(=O)CC(C)(C)C3)c(OC)c1 (stereo unspecified)	i	-0.26
Cc1ccc(N(CC(=O)N2CCc3ccccc32)S(=O)(=O)c2cccs2)cc1	i	0.7
Cc1nn(CC(=O)NCC(C)c2ccccc2)c(=O)c2cc3occc3n12 (stereo unspecified)	i	1.3
Cc1n[nH]c(=O)c2c1nnn2Cc1ccc(F)cc1	i	0.62
Cc1n[nH]c(=S)n(/N=C/c2cccs2)c1=O	i	0.69
Cc1noc(C)c1CSc1nc2ccccc2c(=O)n1-c1ccccc1	-7.1*	1.3*
Cc1c(C(=O)N/N=C/c2ccc(N(C)C)cc2)[nH]c2ccc(Cl)cc12	i	-1.1
[O-][n+]1c2ccccc2cc2ccccc21	i	0.98
CSCCC(NS(=O)(=O)c1ccc(C)cc1)C(=O)N1CCN(C(c2ccccc2)c2ccccc2)CC1 (stereo unspecified)	i	0.76
COc1ccc(CN(CC(=O)NCCc2ccccc2)C(=O)CCC(=O)Nc2ccccn2)cc1	i	0.02
C/C(=N\NC(=S)NC1CCCCC1)c1ccc(Cl)c(Cl)c1	i	0.48
CCOC(=O)C1CCCN(C(=O)Cn2cnc3sc(C)c(S(=O)(=O)N4CCOCC4)c3c2=O)C1 (stereo unspecified)	i	0.85

One compound at a time, from the list above. Screens in order: KCNQ2 block | KCNQ2 block baseline
CCOC(=O)C1CCCN(C(=O)Cn2cnc3sc(C)c(S(=O)(=O)N4CCOCC4)c3c2=O)C1 (stereo unspecified) across the screens: i | 0.85
CCCC[C@H]1C2=C3[C@@H](CC(C(=O)OC)=C[C@@H](C(=O)OC)[C@H]3C(C)(C)C2=O)n2c(=O)n(-c3ccccc3)c(=O)n21 across the screens: i | 1.6
Cc1n[nH]c(=S)n(/N=C/c2cccs2)c1=O across the screens: i | 0.69

Following part.
SMILES	KCNQ2 block	KCNQ2 block baseline
O=C(Nc1ccc2c(c1)Cc1ccccc1-2)c1ccccc1F	i	-0.11
CC1CCCN(c2nc(N(C)c3ccccc3)nc(N)c2[N+](=O)[O-])C1 (stereo unspecified)	i	-0.01
O=C(N/N=C/c1cccnc1)c1ccccc1OCc1cccc(Br)c1	i	2.7
O=S(=O)(Nc1ccc(Oc2ncccn2)c(Cl)c1)c1ccc(F)cc1	i	0.29
COCCN(Cc1cc2cc3c(cc2nc1Cl)OCO3)C(=O)Nc1ccc(F)cc1	i	2.1
COc1ccc(NC(=O)CC2C(=O)N(C)C(=S)N2CCc2ccccc2)cc1 (stereo unspecified)	i	0.18
Cc1cccc(C(=O)OCN2C(=O)c3ccccc3C2=O)c1[N+](=O)[O-]	i	-0.44
Cc1ccc(NC(=O)C(OC(=O)c2ccc(NC(N)=O)cc2)c2ccccc2)cc1Cl (stereo unspecified)	i	-0.88
O=S(=O)(NCCn1cccc1)c1ccc2ccccc2c1	i	0.09
CC12CCC(=O)C=C1CCC1C2C(=O)CC2(C)C1CCC2(O)C(=O)CO (stereo unspecified)	i	0.12
CSc1nc(C)c(CCOCc2ccccc2)c(=O)[nH]1	i	-1.6
O=c1c2ccccc2cnn1Cc1ccc(Cl)c(Cl)c1	i	0.02
NC(=O)N/N=C/c1ccc(N2CCOCC2)s1	i	3.5
C=C1CC2C3CC[C@@]4(OCOC45COCO5)[C@@]3(C)C(O)CC2[C@@]2(C)CCC(=O)C=C12 (stereo partly specified)	i	1.2
Cc1cc(=O)[nH]c(SCC(=O)N2CCCc3ccccc32)n1	-6.2*	-0.5*
O=C(Cc1ccccc1[N+](=O)[O-])Nc1nccs1	i	-1.2
C=CCNC(=S)NNC(=O)c1cc(C)nc2ccccc12	i	0.29
CCCCCc1cc(=O)oc2c(C(CCN(CC)CC)c3ccc(OC)cc3)c(OC)cc(OC)c12 (stereo unspecified)	i	-2.2
c1ccc(CSc2ccc(-c3cccs3)nn2)cc1	i	-0.27
COc1cccc(OC)c1OCC(C)CNCC1CCCO1 (stereo unspecified)	i	0.78
CCCCn1c(SCC(=O)NCc2ccco2)nc2c(sc3ccccc32)c1=O	i	-1.4
CC(=O)Oc1ccc(C2OC(=O)c3ccccc3N2C(C)=O)cc1 (stereo unspecified)	i	-0.59
Cc1cccc(-n2nc([N+](=O)[O-])c(N3CCN(C(=O)c4ccco4)CC3)[n+]2[O-])c1	i	-0.39
Fc1ccc(-c2csc3ncnc(Nc4ccc(N5CCOCC5)cc4)c23)cc1	i	1.2
CC1CC(C)CN(C(=O)CCc2ccccc2)C1 (stereo unspecified)	i	-0.06

7 compounds already listed, ordered by number of heavy atoms, low to high:
SMILES	KCNQ2 block	KCNQ2 block baseline
CC1CC(C)CN(C(=O)CCc2ccccc2)C1 (stereo unspecified)	i	-0.06
c1ccc(CSc2ccc(-c3cccs3)nn2)cc1	i	-0.27
CSc1nc(C)c(CCOCc2ccccc2)c(=O)[nH]1	i	-1.6
O=S(=O)(NCCn1cccc1)c1ccc2ccccc2c1	i	0.09
Cc1cc(=O)[nH]c(SCC(=O)N2CCCc3ccccc32)n1	-6.2*	-0.5*
CC(=O)Oc1ccc(C2OC(=O)c3ccccc3N2C(C)=O)cc1 (stereo unspecified)	i	-0.59
CC1CCCN(c2nc(N(C)c3ccccc3)nc(N)c2[N+](=O)[O-])C1 (stereo unspecified)	i	-0.01

For convenience, two of the compounds above:
SMILES	KCNQ2 block	KCNQ2 block baseline
O=C(Nc1ccc2c(c1)Cc1ccccc1-2)c1ccccc1F	i	-0.11
CC1CCCN(c2nc(N(C)c3ccccc3)nc(N)c2[N+](=O)[O-])C1 (stereo unspecified)	i	-0.01

Carrying on:
SMILES	KCNQ2 block	KCNQ2 block baseline
Cn1c(SCC(=O)N2CCc3ccccc32)nc2cccnc21	i	-1.6
Cc1ccc(OCC(=O)N2CC3(C)CC2CC(C)(C)C3)cc1 (stereo unspecified)	i	-1.2
CSc1ccccc1NC(=O)c1ccccc1N(C)S(C)(=O)=O	i	1.2
Cc1ccc(S(=O)(=O)N2CCN(C(=O)c3ccc(Br)o3)CC2)c(C)c1	i	-0.33
O/N=C/c1ccccc1Oc1ccccc1	i	-1.4
COc1ccc(Nc2oc(-c3ccccc3F)nc2C#N)cc1	i	-0.27
CC(=O)c1ccc(N2CCC(C)CC2)c(F)c1	i	-0.02
O=C(OC1CCOC1=O)C1CCN(S(=O)(=O)c2c(Cl)cccc2Cl)CC1 (stereo unspecified)	i	-0.68
Cc1nc(SCC(=O)O)c(C#N)c(C)c1CC(=O)c1ccccc1	i	2.1
Cc1ccc(C(=O)C2CCN(CC(=O)Nc3ccccc3C)CC2)cc1	i	-0.04
Cc1cc(=O)oc2cc(OCC(=O)OCC(=O)NCCc3ccccc3)ccc12	i	1
CCOC(=O)N1CCN(C(=O)CCS(=O)(=O)c2ccc(Br)s2)CC1	i	-0.7
O=C(COC(=O)c1cc(Br)ccc1O)Nc1cc(S(=O)(=O)N2CCCC2)ccc1Cl	i	1.4
CN(C)S(=O)(=O)c1ccc(C(=O)Nc2cccc(S(=O)(=O)NC3=NCCC3)c2)cc1	i	-0.87
COCCNC(=O)C1=NOC(Cn2cc(C#N)c(=O)n(C)c2=O)C1 (stereo unspecified)	i	-0.91
Cc1nc(-c2ccc([N+](=O)[O-])cc2)nc2[nH]ccc(=O)c12	i	1.4
CCOc1ccc(C(=O)Nc2cccc3nsnc23)cc1[N+](=O)[O-]	i	0.76
O=C(CN1c2ccccc2Sc2ccccc21)NNC(=O)Nc1ccc(Cl)c(Cl)c1	i	0.29
CC(C)(C)n1ncc2c(=O)n(CC(=O)NCc3ccccc3Cl)cnc21	i	0.13
COc1ccccc1CN1C(=O)C(=O)N(Cc2cccc(C)c2)C1=O	i	2.1
Clc1ccccc1CSc1nnc(Cn2cnc3ccccc32)n1-c1ccccc1	i	-0.37
CCOC(=O)C1(O)CC(C)=NN1C(=O)c1cccc(Br)c1 (stereo unspecified)	i	0.68
CCCCOc1cc(=O)[nH]c(=O)[nH]1	i	-0.49
Cc1ccc2nc(/C(C#N)=C\c3ccc(N4CCOCC4)o3)[nH]c2c1	i	5.4
CC1CCN(C(=O)CSc2nc3c(c(=O)n2C)SC(C)C3)CC1 (stereo unspecified)	i	1.5
Other records:
SMILES	KCNQ2 block	KCNQ2 block baseline
CCc1nonc1NC(=O)c1oc2cc(C)c(C)cc2c1C	i	1.5
O=C(O/N=C\c1ccc(N2CCCCC2)c([N+](=O)[O-])c1)c1ccc(Cl)cc1Cl	i	-1.8
CC(C)C(OC(=O)c1cccs1)C(=O)NCc1ccco1 (stereo unspecified)	i	-0.07
CCCSc1nc2c(c(=O)n1CC)SC(C)C2 (stereo unspecified)	i	-0.05
O=C(Cc1cn(Cc2cccc(Cl)c2)c2ccccc12)N1CCCCCC1	i	0.68
CCOC(=O)CNC(=O)CCCCCC(=O)NCC(=O)OCC	i	0.89
CCN(CC)C(=O)COc1ccc(-c2nnc(N3CCCCC3)c3ccccc23)cc1	i	-2.7
CSCCC(NC(=O)c1ccc(Cl)cc1)C(=O)NC(C)(C)C (stereo unspecified)	i	-0.36
CCOC(=O)CSc1nc2cc3c(cc2cc1CC)OCCO3	i	-0.67
CCOc1ccc(CCNC(=O)COC(=O)c2c(OC)cccc2OC)cc1OCC	i	1.2
O=C(Nc1ccc(Cl)c([N+](=O)[O-])c1)C(Sc1ccccc1)c1ccccc1 (stereo unspecified)	i	1.1
CN(C)CCCNC(=O)Cc1ccc(Br)cc1	i	-0.87
CC(C)(C)c1ccc(OCC(O)CNC(=O)c2ccccc2C(=O)O)cc1 (stereo unspecified)	i	-0.03
O=C(CN1CCN(c2ccccc2)CC1)Nc1nnc(-c2ccccc2)s1	i	1.9
N=c1c2c(-c3ccccc3)c(-c3ccccc3)n(Cc3ccccc3)c2ncn1CCO	-7.5*	-0.28*
CCOC(=O)c1cccc(NC(=O)CSc2nnc(-c3ccoc3C)n2CC)c1	i	-0.02
CSc1nc2ccccc2n1Cc1cccc(F)c1	i	-2.8
O=C1c2cccc3c(N4CCCCC4)ccc(c23)C(=O)N1c1ccccc1O	i	6.5
Cc1cccc(NC(=O)C2CCN(S(=O)(=O)c3ccc4ccccc4c3)CC2)n1	i	-0.11
COC(=O)Cn1c(CCC(=O)O)ccc1-c1ccccc1	i	0.93
c1cc(CNCC2CCCO2)ccn1 (stereo unspecified)	i	0.3
COc1cc(C(=O)NCC2(c3ccccc3)CCCC2)ccc1OC(C)C	i	-0.02
CC1CCCCC12NC(=O)N(CC(=O)OCC(=O)c1ccc(OC(F)F)cc1OC(F)F)C2=O (stereo unspecified)	i	-0.04
COC(=O)c1cc2n(n1)CCN(Cc1ccccc1Cl)C2=O	i	1.7
COc1ccc(C(=O)N(CCc2ccccc2)Cc2ccccc2)c(OC)n1	-7.7*	-0.61*
The list continues.
SMILES	KCNQ2 block	KCNQ2 block baseline
CN(c1nc2ccccc2n2c(C3CC3)nnc12)S(=O)(=O)c1ccccc1	i	-2.2
CC(C)(Cc1ccccc1)/[N+]([O-])=C\c1ccc(C(F)(F)F)cc1	i	-2.2
Cc1cccc(-c2ocnc2C(=O)N2CCN(C(=O)c3cccs3)CC2)c1	i	1.8
CCOC(=O)C1CCN(S(=O)(=O)c2ccc(C(C)(C)C)cc2)CC1	i	-1.1
CCCNC(=O)COc1coc(CN2CCN(c3ccccc3F)CC2)cc1=O	i	1.3
C/C(=N/N=C(\C)c1ccccc1O)c1ccccc1O	i	3
COC(=O)N1C(=O)[C@@](c2ccccc2)(C2CCCCC2)N1C(=O)OC	i	0.48
CCOc1ccc(-c2cnc(NCc3cccc4ccccc34)n2CCOC)cc1	-9.7*	-0.38*
COc1ccc(/C=N/Nc2nc(N3CCCC3)nc(N3CCCC3)n2)cc1O	-6.3*	-0.07*
COc1ccc(CCNS(=O)(=O)CC23CCC(CC2=O)C3(C)C)cc1OC (stereo unspecified)	i	1.5
CC(=O)NS(=O)(=O)c1ccc(N2C(=O)CC(Sc3nccc(C)n3)C2=O)cc1 (stereo unspecified)	i	-1.1
CCOc1cc(N2CCOCC2)c(OCC)cc1NC(=S)NCCCOC	i	-0.41
COc1ccc(-c2cnn3c(N)c(S(=O)(=O)c4ccccc4)cnc23)cc1	i	-1.4
O=C(CCN1C(=O)C2C3CCC(C3)C2C1=O)Nc1ccc(Cl)cc1Cl (stereo unspecified)	i	-0.1
COc1ccc(C(=O)Nc2ccccc2C(=O)NC(Cc2ccc(O)cc2)C(=O)NNC(=O)c2ccccc2)cc1 (stereo unspecified)	i	-2.9
S=c1[nH]nc(-c2cccnc2)n1/N=C/C=C/c1ccco1	i	-0.44

From PubChem BioAssay
